HCMV UL50-53 inh = cytomegalovirus nuclear egress complex inhibition; HTRF UL50-UL53 interaction, normalized percent inhibition; actives 0.15% (n = 190,000); inhibition, % (concentration not given with the values);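 active = both replicates at 50% or more, plus weaker picks with an unusually low signal ratio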;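 also: stock transfer was 100 nL into about 20 µL; 0% = negative control wells and 100% = wells with untagged competitor protein; inactives centre near -12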
GIV-Gai inh = blocks GIV peptide binding to rat Galpha-i3; Galpha-i3/FITC-GIV peptide fluorescence polarization, 90 min; active compounds read low; scaled: aluminum fluoride 0%, vehicle 100%; percent of control (FP), % (test concentration not listed); actives 0.42% (n = 210,000);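 active = replicate mean at 85% of control or lower, very high polarization wells dropped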;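 also: lower values mean more displacement of the GIV peptide from Galpha-i3; wells of about 15 µL received 100 nL stock; the first replicate is given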
Target sequence (P08753 whole entry, looked up): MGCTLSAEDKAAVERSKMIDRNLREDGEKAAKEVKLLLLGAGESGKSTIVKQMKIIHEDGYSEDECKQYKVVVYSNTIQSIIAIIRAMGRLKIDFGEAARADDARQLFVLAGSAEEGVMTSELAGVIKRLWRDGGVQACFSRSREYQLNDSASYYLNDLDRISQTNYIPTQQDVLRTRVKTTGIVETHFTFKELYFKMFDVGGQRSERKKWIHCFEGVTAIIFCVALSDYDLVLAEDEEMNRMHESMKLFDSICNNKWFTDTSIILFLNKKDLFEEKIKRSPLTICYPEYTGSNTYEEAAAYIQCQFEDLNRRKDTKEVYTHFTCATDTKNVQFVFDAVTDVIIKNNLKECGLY
Sa growth inh = S. aureus growth inhibition | relative growth, % (test concentration not listed) | AID 720641 | actives 0.53% (n = 170,000) | S. aureus RN4220 growth, OD600, 20 h, 42 °C; active compounds read low;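 active = growth at 42 °C up to 50% and 20 or more points under that at 30 °C, or under 10% at both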;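 also: 300 nL library stock went into each well; scaled to the means of positive and negative controls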
Sa growth inh second temp = further read-out of Sa growth inh, marked with its call; relative growth, %; measured here: growth at 30 °C;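 optical density after 20 h as mean of two plates; 100% = untreated growth and lower means inhibition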
Numbers without * were called inactive; i = inactive; x = not tested or not shown; & = joins results of further samples.

SMILES	HCMV UL50-53 inh	GIV-Gai inh	Sa growth inh	Sa growth inh second temp
Cc1sc(C)c(S(=O)(=O)N2CCc3ccccc3C2)c1-c1ccno1	-6	104	x	x
CCOC(=O)c1c(NC(=O)c2cc(C(C)C)on2)sc(C)c1C	-15	103	98	88
O=C1CCCCC1c1nccc2ccccc12 (stereo not given)	-11	104	94	100
Cc1ccc(CN(C(=O)COc2ccccc2Cl)c2ccccn2)o1	0	105	108	82
Fc1ccc(-c2noc(CSc3ccc(-c4cccc(Br)c4)nn3)n2)cc1	-21	113	x	x
COc1ccc(-c2cc(=O)c3cc(OCC(=O)OC(C)C)ccc3o2)cc1	17	105	110	83
CNC(=O)Cc1ccc(-n2c(=O)c3ccccc3n(CC(=O)Nc3ccc(C(=O)OC)cc3)c2=O)cc1	6	105	x	x
Cc1ccc(-c2cc(N3CCN(S(=O)(=O)c4ccc(C(C)C)cc4)CC3)ncn2)cc1	-31	99	x	x
CC1CN(C(=O)CCC(=O)N2CCCCC2)c2ccccc2O1 (stereo not given)	-23	101	85	79
CN(C)c1ccc(/C=C2\N=C(C(C)(C)C)OC2=O)cc1	-40	115	83	86
CC1(C)C(=O)N(CC(=O)NCc2ccccc2Cl)c2ccc(S(=O)(=O)N3CCCC3)cc21	-34	106	x	x
O=C(O)c1ccc(C(=O)O)c(-c2nc3ccccc3s2)c1	x	100	108	82

Quoted at random: five records from the list, in no set order.
SMILES	HCMV UL50-53 inh	GIV-Gai inh	Sa growth inh	Sa growth inh second temp
CNC(=O)Cc1ccc(-n2c(=O)c3ccccc3n(CC(=O)Nc3ccc(C(=O)OC)cc3)c2=O)cc1	6	105	x	x
CN(C)c1ccc(/C=C2\N=C(C(C)(C)C)OC2=O)cc1	-40	115	83	86
CCOC(=O)c1c(NC(=O)c2cc(C(C)C)on2)sc(C)c1C	-15	103	98	88
CC1CN(C(=O)CCC(=O)N2CCCCC2)c2ccccc2O1 (stereo not given)	-23	101	85	79
O=C(O)c1ccc(C(=O)O)c(-c2nc3ccccc3s2)c1	x	100	108	82

(listing goes on)
SMILES	HCMV UL50-53 inh	GIV-Gai inh	Sa growth inh	Sa growth inh second temp
COc1cc2nc(NC(=O)c3ccc(Cl)cc3)[nH]c(=O)c2cc1OC	3	x	84	96
N#Cc1cc2c(nc1SCc1ccncc1)CCCCC2	-79	105	100	68
O=C(CCn1cnc2ccccc2c1=O)NCc1ccccc1Cl	x	105	109	89
Cc1ccc(C)c(N2CCN(CCCNC(=O)Cn3ncc4c([nH]c5ccccc54)c3=O)CC2)c1	x	100	105	94
CCN(CC)S(=O)(=O)c1ccc(N2CC(C(=O)NC3CCCc4ccccc43)CC2=O)cc1 (stereo not given)	-5	x	100	97
CCOC(=O)c1sc(SC)c(C#N)c1-c1cccs1	-68	109	94	79
COc1ccc(-c2nc3ccccc3s2)cc1NC(=O)COc1ccc(C)cc1	i	103	98	94
CCOC(=O)c1cnc(SCC(=O)NCc2ccco2)nc1N	x	105	88	91
COC(=O)c1cc(C(N)=O)c(SC)s1	-22	97	112	89
CC(C)NC(=O)CC1Nc2c3ccccc3nc(=S)n2C1=O (stereo not given)	x	95	104	93
c1ccc2[nH]c(C34CC5CC(CC(C5)C3)C4)cc2c1	x	101	74	53
Cc1ccc(OCC(=O)OCC(N)=O)cc1C	-29	x	123	88
Cc1sc2nc(CN3CCOCC3)nc(NCCc3ccc(S(N)(=O)=O)cc3)c2c1C	-25	x	84	81
Cc1ccc(S(=O)(=O)NNc2ncnc3c(C)csc23)cc1	-19	106	95	94
CCCNC(=O)CN1C(=O)CSc2ncccc21	-10	100	95	88
CCOC(=O)c1cnc(-c2ccccc2)nc1-c1ccncc1	-14	106	109	91
COc1ccc2nc(N3CCCCC3)[nH]c2c1	3	x	91	90
Cc1cccc(-n2ncc(C(=O)N3CCN(Cc4ccccc4)CC3)c2C2CCN(C(=O)OC(C)(C)C)CC2)c1	x	108	104	95
COc1ccc(OC)c(CNC(=O)c2ccc(C)c(NC(=O)c3nsc4ccccc34)c2)c1	x	106	126	93
CCc1cc2c(=O)n(Cc3ccco3)c(SCC(=O)NC3CCCC3)nc2s1	x	102	87	92
CC(O)CNCc1ccccc1OCc1ccccc1F (stereo not given)	-10	x	96	91
Cc1nc(C2COc3ccccc3O2)sc1C(=O)O (stereo not given)	-12	104	106	86
CCOC(=O)CSc1nc2sc3c(c2c(=O)n1Cc1ccccc1)CC(C)CC3 (stereo not given)	-41	105	103	95
CCOc1ccc(NC(=O)CSc2nc3c(c(=O)[nH]2)CCCC3)cc1	-7	100	108	86
Cc1ccc(C2CC(=O)NC(SCC(=O)Nc3ccc(Br)cc3)=C2C#N)cc1 (stereo not given)	-17	103	x	x
FC(F)(F)c1cccc(N2CCN(Cc3cccs3)CC2)c1	9	107	103	109
Cc1ccc(-c2ccc(CCC(=O)O)n2-c2cccc(O)c2)cc1	-19&-9	109&107	88	69
COc1cc(NC(=O)c2ccc3c(Cl)c4c(nc3c2)CCC4)cc(OC)c1OC	-30	99	104	82
COC(=O)C1=C(C)NC(C)=C(C(=O)OCC(C)C)C1c1ccccc1[N+](=O)[O-] (stereo not given)	-35&-62&-19&-25&-32	105	89&88&87	77&64&67
CC(=O)N1CCCc2cc(NC(=O)c3ccccc3Br)ccc21	-7	103	x	x
CCc1ccc(-c2cc(C)no2)cc1S(=O)(=O)NCCCN1CCC(C)CC1	-25	104	87	70
N#Cc1ccccc1CSCC(=O)N1CCN(c2ccccc2)CC1	-12	x	101	90
CC1CCN(C(=O)Cn2ncc3c([nH]c4ccccc43)c2=O)CC1	-33	107	103	98
O=C1CC(c2ccccc2)n2ncnc2N1 (stereo not given)	-15	106	95	78
Cc1ccc(NC(=O)/C=C/c2ccc(Br)o2)cc1	-25	x	88	92
O=C(COc1ccccc1)NCCc1csc(-c2cccc(F)c2)n1	x	109	114	89
CCN(C(=O)Cn1nnc2sc(-c3ccccc3)cc2c1=O)c1cccc(C)c1	-42	102	100	82
Oc1ccc(/C=C/c2ccc(/C=C/c3ccc(O)cc3)c(Br)c2)cc1	-19	108	x	x
CCCCc1cc(CCCC)n2nc(-c3ccccc3)cc2n1	-16	x	75	84
COc1ccc(C2C(C(=O)Nc3ccc(C)cc3)=C(C)Nc3ncnn32)cc1OC (stereo not given)	-17	103	x	x
COc1cccc(NCCCCO)c1	7	106	99	79
O=c1[nH]c(CCl)nc2sc3c(c12)CCCC3	8	x	103	94
O=C(NCc1ccccc1)c1nc(S(=O)(=O)Cc2ccc(F)cc2)ncc1Cl	6	97	15	7
COC(=O)c1sccc1NC(=O)C1CCN(c2ccc(=O)n(-c3ccc(C)c(Cl)c3)n2)CC1	-18	104	x	x
CCn1cc(S(=O)(=O)CC(=O)Nc2ccc3c(c2)OCCO3)c2ccccc21	x	104	93	75
O=C(Cn1ncn2c(cc3ccccc32)c1=O)N1CCN(c2ccccc2)CC1	2	96	100	99
COc1ccc(OC)c(CCNc2ncnc3onc(-c4ccc(F)cc4)c23)c1	x	107	121	95
CCCCNC(=O)Cc1c(C)nc2nc(-c3ccccc3)nn2c1C	-7	109	x	x

Continued (two carried over from the part before).
SMILES	HCMV UL50-53 inh	GIV-Gai inh	Sa growth inh	Sa growth inh second temp
COc1ccc(OC)c(CCNc2ncnc3onc(-c4ccc(F)cc4)c23)c1	x	107	121	95
CCCCNC(=O)Cc1c(C)nc2nc(-c3ccccc3)nn2c1C	-7	109	x	x
CN1C(N)=NC(=O)C12COC(c1cccnc1)OC2 (stereo not given)	-25	104	80	85
N#Cc1ccc(NC(=O)COC(=O)CCc2nc3ccccc3[nH]c2=O)cc1	-28	x	91	96
CCc1ccc(S(=O)(=O)NCc2csc(-c3cccnc3)n2)s1	-40	135	103	80
COc1cccc(C(=O)Nc2ccccc2OCc2cc(=O)n3cc(C)ccc3n2)c1	x	102	77	89
COc1cccc(OC)c1C(=O)Nc1ccc(S(=O)(=O)Nc2nccc(C)n2)cc1	-21	109	102	88
CCOc1ccc2nc(NC(=O)c3nc(SC(C)C)ncc3Cl)sc2c1	-13	99	94	63
COC(=O)c1c(NC(=O)CCN2CCOCC2)sc2c1CCCC2	-6	x	91	92
O=C1N/C(=N\O)S/C1=C/c1ccc(O)cc1	x	103	94	60
C/C=C(\C(=O)O)c1ccccc1	-44	101	90	83
Cc1ccc(CNC(=O)Nc2ccccc2)cc1	-13	x	92	90
CC(C)n1cnc2nc(COc3ccccc3NC(=O)Nc3ccccc3Cl)cc(=O)n21	-12	99	x	x
O=C(CSc1ccc(-c2ccncc2)nn1)N1CCCc2ccccc21	4	108	109	92

Molecules listed so far with a furan ring, fused or not, in the order listed:
SMILES	HCMV UL50-53 inh	GIV-Gai inh	Sa growth inh	Sa growth inh second temp
Cc1ccc(CN(C(=O)COc2ccccc2Cl)c2ccccn2)o1	0	105	108	82
CCOC(=O)c1cnc(SCC(=O)NCc2ccco2)nc1N	x	105	88	91
CCc1cc2c(=O)n(Cc3ccco3)c(SCC(=O)NC3CCCC3)nc2s1	x	102	87	92
Cc1ccc(NC(=O)/C=C/c2ccc(Br)o2)cc1	-25	x	88	92

(further entries)
SMILES	HCMV UL50-53 inh	GIV-Gai inh	Sa growth inh	Sa growth inh second temp
Cc1cc(N2CCN(S(=O)(=O)c3cc(F)ccc3F)CC2)nc(N2CCOCC2)n1	-9	101	x	x
[O-][n+]1onc2c1CCc1c-2nc(-c2ccccc2)n1O	-31	99	127	112
CCCC(C(=O)Nc1ccc(OCC)cc1)N1Cc2ccccc2C1=O (stereo not given)	-9	104	96	86
Cc1ccccc1C(=O)n1nc(-c2ccco2)nc1NCc1cccs1	-31	104	105	84
Cc1ccc(N2CCn3c(nc4ccccc43)C2)cc1NC(=O)C(C)(C)C	-29	102	x	x
CC(C)Sc1nc2c(c(=O)[nH]1)C(c1cccs1)C1=C(CC(C)(C)CC1=O)N2 (stereo not given)	-26	101	106	65
CCOC(=O)c1c(C)oc2nc(C)nc(NCCCN3CCN(c4ccccc4)CC3)c12	x	101	101	96
CCOC(=O)c1c(NC(=O)c2cc(-c3cccc(Cl)c3)on2)sc(C(C)=O)c1C	-3	105	99	89
O=C(C1Nc2ccccc2S(=O)(=O)N1)N1CCN(c2ccccc2F)CC1 (stereo not given)	-25	106	x	x
COc1cc(OC)c(NC(=O)CCn2cccn2)cc1Cl	x	95	107	88
COc1ccc(C(=O)CN2C(=O)N(c3ccc(C(C)=O)cc3)S(=O)(=O)c3ccccc32)cc1	x	103	93	96
O=C(Cn1c(-c2cccs2)cc2cc(F)ccc21)NCCCN1CCN(c2ccccc2F)CC1	x	106	108	97
COc1ccccc1NC(=O)Nc1ccc(SCc2cc(=O)n3c(ncn3C(C)C)n2)cc1	-22	103	x	x
CC(C)CCNC(=O)C1CCC(CNS(=O)(=O)c2cccc3nsnc23)CC1 (stereo not given)	-57	108	100	92
COc1ccc(N2C(=O)CSC23C(=O)N(Cc2cccc(C(F)(F)F)c2)c2ccccc23)cc1 (stereo not given)	x	99	96	73
O=C(COc1ccc(Cl)cc1Cl)NC1=NCCS1	x	110	97	94
COC(=O)COc1cccc2c1OC(C)(C)C2	-7	100	98	92
COC(=O)C1=C(c2ccccc2)c2ccccc2S(=O)(=O)N1CC(=O)Nc1ccc(C)c(C)c1	-42	104	x	x
CC(C)c1c(C#N)c(N)nc(SCC(N)=O)c1C#N	-8	x	98	87
COc1cccc(C(=O)NC(c2ccc(Cl)cc2)c2cc(Cl)c3cccnc3c2O)c1 (stereo not given)	x	96	29	20
Cc1ncc(CSc2ccc(Cl)cc2)c(CO)c1O	-17	99	100	75
O=C(NCCN1CCN(c2cccc(Cl)c2)CC1)c1ccc(CS(=O)(=O)c2cccc(C(F)(F)F)c2)o1	-4	108	101	48
COc1ccc(CCNc2ncnc3c2cnn3-c2ccc(F)cc2)cc1	x	103	86	92
Cc1c(C(=O)N(Cc2ccc(N(C)C)cc2)CC2CCCO2)oc2ccccc12 (stereo not given)	-35	107	100	85
Cc1noc2ncnc(N3CCCC(C(=O)Nc4cc(F)ccc4F)C3)c12 (stereo not given)	x	105	105	80
CNc1ccccc1C(C)(C)c1cc(-c2cccc(OC)c2)no1	-12	x	99	100
COc1ccc(Cn2c(SCc3ccc(C(=O)NC4CCCCC4)cc3)nc3cccnc32)cc1	x	106	102	95
O=C(O)CCCN1C(=O)/C(=C/c2c(N3CCN(Cc4ccccc4)CC3)nc3ccccn3c2=O)SC1=S	-1	146	91	92
CCCn1c(C)cc(C(=O)COC(=O)C2COc3ccccc3O2)c1C (stereo not given)	8	x	97	97
S=c1[nH]c(-c2ccccc2)c(-c2ccccc2)[nH]1	-5	x	101	91
Cc1nc(-c2cccc(N3CC(C(=O)Nc4cccc(Br)c4)CC3=O)c2)no1 (stereo not given)	-30	102	x	x
Cn1c(NNC(=O)c2ccccc2)cc(=O)n(C)c1=O	-25	97	89	84
CCCc1nnc2n1NC(c1ccc(C)cc1)C(C(=O)Nc1ccc(CC)cc1)S2 (stereo not given)	-4	107	x	x
CC1=C(C(=O)OCCOC(C)C)C(c2ccc(OCc3ccccc3)cc2)NC(=O)N1 (stereo not given)	-18	102	x	x
CCOc1ccc(CNC(=O)CN2C(=O)CCn3nc(-c4cn(C)c5ccccc45)cc32)cc1OC	x	107	99	94
COc1cccc(CNC(=O)c2cc3c(=O)n(Cc4cccnc4)ccc3nc2C)c1	x	105	111	93
Cc1[nH]nc2nc(SCC(=O)NC3CCCCC3)n(-c3ccc(Br)cc3)c(=N)c12	-29	98	97	89

Screening results (PubChem BioAssay)

Rows were taken by chance; overall some 0.83% were active at least once.
